# Screening data (PubChem)
# Lassa entry inh: Lassa virus entry inhibition; Lassa virus pseudotype entry inhibition, cell reporter; control for the full effect not named in the record; Potency, µM (highest dose often 37.9 µM), for the others: top-dose activity change, negative = inhibition, hits mostly inhibitors; hit rate 1.2% among 300,000; active means well fitted inhibition curve with a large enough effect; inconclusive means small, poorly fitted or top-dose-only effect, or effect the other way; inactive means flat fitted curve, though single readings scatter; tested in HEK293 cells; note: % is set by controls: 0 for no effect and ±100 for the full control effect; nearly all actives have a fitted effect of over 50% in size; luciferase read-out
# SARS PLP yeast: SARS-CoV PLP inhibition in yeast. S. cerevisiae expressing SARS-CoV PLpro, growth rescue; control for the full effect not named in the record. Potency, µM (doses to about 32.9 µM), without a hit: top-dose activity, positive = growth rescue. hit rate 0.19% among 330,000; active means well fitted rising curve with a large enough effect; inconclusive means small, poorly fitted or top-dose-only effect; inactive means no such curve, though single readings can be large or run the other way; note: 0% is about no effect; nearly all actives have a fitted effect of over 55% in size; growth read by luminescence after 48 h
# Cruzain noTriton: cruzain (T. cruzi) inhibition without detergent. P25779. purified cruzain, Z-FR-AMC fluorescence, no detergent. Potency, µM, for inactives: max response, negative = inhibition, hits mostly inhibitors. hit rate 2.3% among 200,000. AID 1476;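 note: plate controls were enzyme without inhibitor for no effect and buffer without enzyme for full effect; nearly all actives have a fitted effect of over 40% in size; top concentration of the series not given in the record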
# Target sequence (P25779 123-467 limits assumed): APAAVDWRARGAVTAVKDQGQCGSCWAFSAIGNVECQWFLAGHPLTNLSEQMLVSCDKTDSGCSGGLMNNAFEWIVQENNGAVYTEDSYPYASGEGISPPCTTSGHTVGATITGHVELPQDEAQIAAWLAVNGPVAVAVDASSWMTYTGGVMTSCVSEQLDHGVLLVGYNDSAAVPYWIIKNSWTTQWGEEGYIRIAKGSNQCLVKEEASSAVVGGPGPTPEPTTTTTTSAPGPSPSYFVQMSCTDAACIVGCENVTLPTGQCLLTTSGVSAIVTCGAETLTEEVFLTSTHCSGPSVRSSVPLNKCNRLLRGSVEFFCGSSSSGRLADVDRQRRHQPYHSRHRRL
#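 Detergent-free condition (0.00005% Triton X-100) in acetate buffer pH 5.5 with DTT. 1.5 nM enzyme and compound were pre-mixed 15 min, then 2 uM Z-FR-AMC substrate added; reaction progress from fluorescence change between first and third reads (60 s).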
# Cruzain Triton: cruzain (T. cruzi) inhibition with detergent | P25779 | purified cruzain, Z-FR-AMC fluorescence, 0.01% Triton | Potency, µM, inactives show max response, negative = inhibition, usual class: inhibitors | hit rate 0.43% among 200,000;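 note: plate controls were neutral wells for no effect and buffer without enzyme for full effect; nearly all actives have a fitted effect of over 40% in size; top concentration of the series not given in the record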
#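 15 min RT preincubation of 1.5 nM cruzain with compound, then 2 uM Z-FR-AMC added; kinetic AMC fluorescence, 60 s delta. Triton X-100 0.01%, pH 5.5.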
# StopGo reporter: FMDV 2A StopGo reporter, luciferase signal | human cells with a luciferase reporter of 2A StopGo recoding; control for the full effect not named in the record | Potency, µM (top dose mostly 57.9 µM), inactives show at the highest dose signal change, negative = less light | hit rate 1.2% among 410,000; active = well fitted falling curve with a large enough effect; inconclusive = small, poorly fitted or top-dose-only effect; inactive = no such curve, though single readings can be large or run the other way; tested in HEK293T cells; note: % is set by controls: 0 for no effect and ±100 for the full control effect; nearly all actives have a fitted effect of over 45% in size; luciferase light after 4 h
# NS1 function inh: inhibitors of influenza NS1 protein function. S. cerevisiae slowed by influenza A NS1, growth recovery by OD600. hit rate 0.4% among 270,000. Potency, µM (titrated, usually from 46.1 µM), inactives show at the highest dose activity, positive = more growth; active means well fitted rising curve with a large enough effect; inconclusive means small, poorly fitted or top-dose-only effect; inactive means no such curve, though single readings can be large or run the other way; note: nearly all actives have a fitted effect of over 50% in size
#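 A cell-based growth assay was used: compounds that relieve NS1-induced slow growth of budding yeast raise OD600. Assay medium was yeast nitrogen base with ammonium sulphate and -URA supplement, pH 6.0, with 2% galactose.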
# RE007 growth inh: less growth of the S. pombe RE007 Vpr strain | S. pombe RE007 Vpr strain, BacTiter-Glo ATP luminescence, 24 h; control for the full effect not named in the record | hit rate 0.21% among 360,000 | Potency, µM (doses to about 92.2 µM), for the others: at the top dose activity change, negative = less growth; active = well fitted falling curve with a large enough effect; inconclusive = small, poorly fitted or top-dose-only effect; inactive = no such curve, though single readings can be large or run the other way;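 note: % is set by controls: 0 for no effect and ±100 for the full control effect; nearly all actives have a fitted effect of over 50% in size; the assay follows cell death caused by Vpr and the record does not say whether a fall means rescue or toxicity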
#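 Fission yeast strain RE007, carrying one chromosomally integrated HIV-1 vpr copy, was seeded at OD 0.01 in PMG+AL medium with 23 nL pinned compound. After 24 h at 30 °C and 99% humidity, viability was read by BacTiter-Glo luminescence.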
# Marburg entry inh: Marburg virus entry inhibition; Marburg virus pseudotyped entry inhibition, cell reporter; control for the full effect not named in the record; about a third of the inactives were read at about 46 µM; Potency, µM (highest dose often 37.8 µM), for inactives: at the top dose activity change, negative = inhibition, hits mostly inhibitors; hit rate 1.8% among 300,000; active = well fitted inhibition curve with a large enough effect; inconclusive = small, poorly fitted or top-dose-only effect, or effect the other way; inactive = flat fitted curve, though single readings scatter; tested in HEK293 cells; about a fifth of its hits are not listed in these tables; note: % is set by controls: 0 for no effect and ±100 for the full control effect; luciferase read-out
# The depositor's hits bear a star; ? = inconclusive; . = not tested or not shown; & = joins results of further samples; [ ] = remark or other dose. Unless noted, calls come from the whole dose curve; as a rule, active = well fitted curve in the direction sought with a large enough effect; inconclusive = small, poorly fitted or top-dose-only effect, or another doubt; inactive = no such curve, though single readings can be large; an effect the other way counts as inactive or inconclusive. Potency is the fitted concentration of half-maximal effect.
SMILES,Lassa entry inh,SARS PLP yeast,Cruzain noTriton,Cruzain Triton,StopGo reporter,NS1 function inh,RE007 growth inh,Marburg entry inh
COc1ccc(CC(=O)Nc2cc(C)ccn2)cc1OC,3%,.,.,.,30%,.,-9%,2%
CCCOC(=O)Nc1cccc(C(C)=O)c1,-8%,-20%,0%,2.3%,28%,-2%,-4%,18%
Cc1cccc(C(=O)NNC(=O)c2ccccc2C)c1,22%,0%,.,.,16%,-5%,16%,?
COc1ccc(C2C(C(=O)c3ccco3)=C(O)C(=O)N2c2nnc(C)s2)cc1OC (stereo not drawn),11%,3%,.,.,-13%,3%,-8%,?
COCC(=O)NCc1nc2ccccc2[nH]1,0%,-3%,-13%,0.4%,-9%,2%,25%,-10%
COc1cc(-n2c(=S)[nH]c3ccccc3c2=O)c(Cl)cc1Cl,-25%,-9%,-1%,4.1%,53%[activator],-35%,1%,-22%
COc1ccc2c(c1)c(C(=O)N/N=C/c1ccc(OC)c(OC)c1)c(C)n2C,4%,19%,4%,-6.0%,-6%,9%,12%,17%
Cc1cccc(-c2nc3scc(CCNS(=O)(=O)c4ccc(F)c(C(F)(F)F)c4)n3n2)c1,-16%[46.1 µM],.,-7%,-11%,53%[activator],.,.,.
O=C(O)c1ccc(NC(=S)NC(=O)c2ccc(-c3ccc(Br)cc3)o2)cc1,7%,-3%,.,.,-2%,7%,-5%,1%&1%
Cc1cc(Nc2ccc([N+](=O)[O-])cc2)nc2ccccc12,?,-2%,.,.,0%,4%,-13%,-28%[46.1 µM]
COc1cccc(-c2[nH]nc3c2C(c2ccoc2)C(C#N)=C(N)O3)c1 (stereo not drawn),30%,-5%,-5%,-8.5%,0%,15%,-8%,0%
CN1CCCC(OC(=O)c2ccc(C(C)(C)C)cc2)C1 (stereo not drawn),4%,-1%,.,.,9%,-4%,0%,9%
CCC(C)(C)C1CCC(=NNC(=S)Nc2ccccc2)CC1 (stereo not drawn),?,-1%,.,.,-23%,.,22%,8%
CC(=O)OCCN(CCOC(C)=O)c1c(C)[nH]c(=O)[nH]c1=O,6%,7%,1%,2.2%,.,2%,-7%,10%
CCOC(=O)N1CCC(NC(=O)c2cc(C(=O)Nc3ccc(OCC)cc3)ccc2CO)CC1,-3%,-2%,18%,-1.2%,?,2%,11%,-3%&-22%
CCOC(=O)c1cnn(-c2nc(-c3ccccc3)nc3c2COC(C)(C)C3)c1N,-6%,5%,-1%,3.2%,-12%,-7%,-4%,22%
COC(=O)CSc1nnc(-c2ccc(S(=O)(=O)NCc3ccccc3Cl)cc2)o1,13%,-2%,18%,2.1%,-18%,1%,9%,25%
O=C1COc2ccc(C(=O)c3ccccc3C(=O)NCc3ccccc3)cc2N1,?,2%,-3%,0.2%,0%,1%,7%,-3%[46.1 µM]
CC1(C)CCC(=O)N2CC[C@H]3C[C@H](OC(=O)Nc4ccccc4)C[C@@H]1[C@H]32,.,-11%,.,.,44%[activator],-35%,-19%,.
COC(=O)c1nn(-c2ccccc2)c(Sc2ccc(Br)cc2)c1/C=N/O,-19%,6%,15%,-7.5%,-8%,1%,16%,1%
COc1ccc(C(C(=O)NC2CCCCC2)N(Cc2ccco2)C(=O)CNC(=O)c2ccco2)cc1 (stereo not drawn),3%,.,.,.,12%,.,0%,-3%
CCc1ccccc1N(C)C(=O)c1cn(CC(C)C)c(=O)c2cc(OC)c(OC)cc12,?,.,?,-3.6%,-19%,.,.,?
CC(C)c1nn(-c2cc(C(F)(F)F)ccn2)c(=O)o1,.,1%,.,.,4%,4%,-16%,.
O=C(c1ccc(Cl)cc1)C1CCCN(Cc2ccc3c(c2)OCCO3)C1 (stereo not drawn),-20%,0%,.,.,-19%,-3%,-13%,?
CCCOc1ccc2c(C)c(CC(=O)OC)c(=O)oc2c1,2%,-3%,12%,-8.9%,-5%,4%,-21%,-7%
O=C(CCCc1nc(-c2ccccc2)no1)N1CCOCC1,-1%,8%,-7%,3.3%,-5%,-11%,2%,17%
O=C(CSc1nc(C(F)(F)F)cc(=O)[nH]1)Nc1nccs1,12%,4%,.,.,-19%,.,2%,5%
CN1c2ccccc2C(C)(C)C12CCCC(=O)N2 (stereo not drawn),20%,4%,-9%,2.8%,2%,5%,-9%,?
O=C(CSc1nc(-c2ccc(F)cc2)cc(C(F)(F)F)n1)NCCN1CCOCC1,-3%,-7%,4%,-3.5%,-8%,0%,2%,-5%&-5%
O=C(Nc1ccc(Cl)cn1)Nc1cccs1,19%,1%,9%,2.1%,51%[activator],?,-10%,-22%
COc1ccc(CCNC(=O)C(NS(=O)(=O)c2cccc3nsnc23)C(C)C)cc1OC (stereo not drawn),.,?,.,.,10µM*,-3%,-22%,.
CCc1nnc(N/N=C/c2ccc(O)c(OC)c2)n1N,.,-6%,.,.,-17%,-18%,-5%,.
Cc1ccc(N(C(=O)COc2ccccc2C)S(=O)(=O)c2ccc(Cl)cc2)cc1,?,.,-22%,-5.2%,-6%,.,.,.
N=C1/C(=C/c2cccn2Cc2ccc(Cl)cc2)C(=O)N=C2SC=CN12,?,-10%,-14%,-3.7%,-19%,-2%,9%,6%
CCC[N+](C)(C)C(C)C(OC(C)=O)c1ccccc1 (stereo not drawn),2%[46.1 µM],-1%,.,.,-21%,2%,9%,?
O=C(O)Cn1nc(N2CCN(c3ccc(F)cc3)CC2)ccc1=O,0%[46.1 µM],.,8%,-2.6%,-3%,.,.,7%[46.1 µM]
C=CCNC(=O)c1ccc(C2SCC(=O)N2Cc2ccccc2)cc1 (stereo not drawn),-23%[46.1 µM],1%,.,.,-3%,0%,-8%,9%[46.1 µM]
O=C(C[C@H]1C[C@H](C(=O)N2CCOCC2)[C@@]2(CCC3CCCC3)c3[nH]c4cc(-c5ccco5)ccc4c3CCN2C1=O)NCCc1ccccn1,.,0%,.,.,-27%,.,12%,0%
COc1cc2c(cc1OC)C(c1ccc([N+](=O)[O-])cc1)NCC2 (stereo not drawn),.,7%,.,.,-3%,3%,5%,.
O=C(N/N=C/c1ccccc1OC(=O)c1ccc2c(c1)OCO2)c1cccc(F)c1,-13%,13%,?,-5.0%,21%,9%,-7%,?
CCN1N=C(c2cc(Cl)sc2Cl)CSC1=O,7%,-10%,-5%,-9.2%,-7%,5%,-20%,0%
CCOc1ccc(/C=C2\NC(=S)NC2=O)cc1,.,-2%,.,.,12%,-6%,8%,.
CCOc1ccc(C(=O)NC(C(=O)NCc2ccccc2OC)C(C)C)cc1 (stereo not drawn),30%[46.1 µM],1%,.,.,8%,.,2%,-5%[46.1 µM]
O=C(CNC(=O)c1cccs1)NCC(=O)OCc1ccccc1Br,13%,0%,.,.,11%,1%,17%,18%[46.1 µM]
Cc1ccc(C(=O)C=CNNC(=O)c2ccccc2)cc1,.,-5%,.,.,24%,-5%,1%,.
O=C(NCCN1C(=O)S/C(=C\c2ccc(Cl)c(Cl)c2)C1=O)c1cnccn1,-16%,6%,-7%,-4.9%,-13%,11%,-18%,-5%
O=C(NC1CCCCC1)C1CCN(C(=O)NCc2ccccc2)CC1,2%,-12%,1%,0.7%,13%,-4%,5%,-1%
COc1cccc(CNC(=O)CCCCCNC(=O)N2CCn3c2nc2ccccc23)c1,.,-1%,.,.,-2%,-7%,-1%,.
Cn1nccc1NC(=O)c1nccnc1C(=O)O,.,1%,.,.,-7%,3%,-12%,.
CC(C)(C)OC(=O)CNC(=O)c1nc[nH]c1C(=O)NCc1ccccc1,.,2%,.,.,-16%,5%,5%,.
CC(C)(C)C(=O)COC(=O)c1ccc(O)cc1,-3%,18%,-3%,-1.5%,33%[activator],-8%,-7%,25%[46.1 µM]
CCN(CC)CCSc1nnc2c3ccccc3n(CCc3ccccc3)c2n1,.,-1%,.,.,-21%,3%,-13%,.
Cc1nc2ccc(NC(=O)Cc3cccc(F)c3)cc2s1,?,-1%,.,.,43%[activator],.,-12%,?
c1ccc(Cn2nnc3c(N4CCC5(CC4)OCCO5)ncnc32)cc1,25%,2%,12%,-5.7%,-20%,-6%,1%,19%
Cc1nn(CC(=O)Nc2cccnc2N2CCOCC2)c(=O)c2ccccc12,.,?,-10%,-2.5%,.,-11%,.,1%
COc1ccccc1N(CC(=O)NCCSCc1ccc(C)cc1)S(=O)(=O)c1ccccc1,.,-2%,.,.,?,-54%,3%,.
O=C(CSc1cccc(C(F)(F)F)c1)Nc1ccc(N2CCOCC2)cc1,7%,-1%,.,.,-9%,.,14%,25%
CC(C)Sc1ncc(Cl)c(C(=O)Nc2nc3ccc(S(C)(=O)=O)cc3s2)n1,42%[46.1 µM],.,5%,2.8%,0%,.,.,-1%[46.1 µM]
CCOC(=O)CC(=O)CSc1nc(-c2ccccc2)cc(-c2ccccc2)c1C#N,?,-2%,-21%,-4.6%,-7%,10%,0%,?
O=C(CCC1CCCCC1)NNC(=O)NC12CC3CC(CC(C3)C1)C2,-14%[14.3 µM],2%,2%,2.3%,-18%,5%,8%,12%

# Next compounds.
SMILES,Lassa entry inh,SARS PLP yeast,Cruzain noTriton,Cruzain Triton,StopGo reporter,NS1 function inh,RE007 growth inh,Marburg entry inh
Cc1ccc(NC(=O)Cn2c(=O)n(CCc3ccccc3)c(=O)c3c4c(sc32)CCCC4)cc1C,27%[46.1 µM],.,-4%,-1.2%,-2%,.,.,15%[46.1 µM]
O=C(c1ccc(=O)[nH]c1)N1CCN(S(=O)(=O)c2ccccc2)CC1,-3%,-3%,.,.,-8%,-1%,3%,13%
Cc1ccc(O)c(-c2n[nH]c3c2C(c2ccc(F)cc2)N(Cc2ccco2)C3=O)c1 (stereo not drawn),?,.,?,-22%,-21%,.,.,?
Cc1cccc(Cn2cccc(C(=O)Nc3cc(C)on3)c2=O)c1,-6%[46.1 µM],.,-8%,1.4%,-3%,.,.,.
CCn1c(SC(C)C)nnc1-c1cc(-c2ccccc2)sc1N,-18%,-20%,-1%,-12%,-22%,3%,-7%,-1%
CCc1ccccc1NC(=O)CSc1nc(C)c(C(=O)Nc2ccccc2)c(-c2ccc(Cl)cc2)c1C#N,?,.,4%,-1.4%,-4%,.,.,.
